Screening data deposited in PubChem BioAssay by several laboratories.
Mtb H37Rv – M. tuberculosis H37Rv growth inhibitors, H37Rv strain (AID 1626) | M. tuberculosis H37Rv growth inhibition; higher % means a stronger effect | inhibition, % at 10 µM, or IC50 in µM where a hit was titrated | 220,000 compounds, 0.95% hits;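 active = confirmed in a dose series; inconclusive = inhibition above 80% but not taken into the dose series; inactive = below 80% or under 30% at every dose of the series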;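 also: bacteria incubated seven days before Alamar blue readout; 0% = bacteria only wells and 100% = bacteria with antibiotic wells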
YopH inh – YopH tyrosine phosphatase inhibitors, primary screen, biochemical, fluorescence Ex485/Em525; YopH tyrosine phosphatase [Yersinia enterocolitica]; inhibition, %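 (about 10 µM by stock and volumes)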; 140,000 compounds, 0.16% hits;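 active = inhibition of 50% or more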;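 also: controls were vehicle for no effect and minimum signal wells for full effect; inactives centre near -20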
RecA intein inh – Mtb RecA intein splicing inhibitors, primary screen, biochemical, fluorescence, HTS; inhibition, %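 (about 9 µM by stock and volumes)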; Protein RecA (Mycobacterium tuberculosis (strain ATCC 25618 / H37Rv)), P9WHJ3; 290,000 compounds, 0.75% hits; cell-free RecA intein splicing; in the data active = inhibition above about 30%; inconclusive = no clear call, values can overlap the other calls;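 also: 0% = vehicle wells and 100% = reference inhibitor control wells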
Target sequence (P9WHJ3 whole entry, looked up): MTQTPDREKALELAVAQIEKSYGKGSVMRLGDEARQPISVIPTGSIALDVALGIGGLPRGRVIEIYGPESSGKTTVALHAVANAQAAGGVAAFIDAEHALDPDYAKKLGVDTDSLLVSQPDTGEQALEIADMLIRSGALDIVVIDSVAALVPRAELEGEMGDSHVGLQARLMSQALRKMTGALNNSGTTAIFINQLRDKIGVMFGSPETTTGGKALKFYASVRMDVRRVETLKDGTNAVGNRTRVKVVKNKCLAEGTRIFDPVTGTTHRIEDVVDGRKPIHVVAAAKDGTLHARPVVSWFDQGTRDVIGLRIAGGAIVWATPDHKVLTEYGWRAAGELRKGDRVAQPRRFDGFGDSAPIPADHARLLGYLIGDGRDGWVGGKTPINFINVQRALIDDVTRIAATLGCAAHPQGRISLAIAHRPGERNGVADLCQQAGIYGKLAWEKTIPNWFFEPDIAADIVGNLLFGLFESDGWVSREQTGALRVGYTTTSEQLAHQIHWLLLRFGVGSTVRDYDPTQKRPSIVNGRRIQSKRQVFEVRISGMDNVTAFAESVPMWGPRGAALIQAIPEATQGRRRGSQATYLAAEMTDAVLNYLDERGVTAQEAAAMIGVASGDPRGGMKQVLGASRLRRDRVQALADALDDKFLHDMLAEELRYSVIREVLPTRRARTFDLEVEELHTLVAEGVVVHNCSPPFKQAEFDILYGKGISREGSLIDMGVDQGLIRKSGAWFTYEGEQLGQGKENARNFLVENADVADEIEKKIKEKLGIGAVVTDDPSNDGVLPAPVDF
Arbovirus inh – antivirals against arbovirus infection, primary screen, cell-based, full library, 10K replicate subset; 200,000 compounds, 0.37% hits; inhibition, % at 10 µM; arbovirus infection cell-based antiviral screen;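 active = inhibition from about 30%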;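 also: bluetongue infection of BSR cells; cell survival read as ATP light after 72 h; 0% = infected wells without compound and 100% = uninfected wells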
Mtb bLac sens – beta-lactam sensitization of Mtb H37Rv, H37Rv; M. tuberculosis H37Rv growth with meropenem, percent inhibition; hits of this screen are not shown here; inhibition, % at 25 µM; 330,000 compounds, 0.27% hits;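 active = about 74% or more and at least 40 points above the plate without the antibiotic, then above 30% in a dose series; inconclusive = first-round hits that could not be retested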;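 also: growth measured after seven days incubation then overnight dye step; 0% = bacteria only wells and 100% = bacteria with antibiotic; twin plates without the antibiotic show which effects depend on it; some results filed as inactive read as strong as hits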
Arbovirus inh repeat – second read-out of Arbovirus inh, no call of its own (marks repeat the call); inhibition, %; measured here: 10K subset replicate screen; many hits read low in the repeat;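 first of two repeat runs on a subset; 0% = infected and 100% = uninfected wells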
An asterisk follows results filed as active; ? = inconclusive; . = no result given. The list is partial; rates above refer to the full screens.

SMILES	Mtb H37Rv	YopH inh	RecA intein inh	Arbovirus inh	Mtb bLac sens	others
Cc1ccc(C)c(-n2ccnc2SCC(N)=O)c1	8%	.	-1.3	-2	-8
CC1(C)CC(=O)C(C=NCC2CCNCC2)=C(O)C1	-3%	-10	-6.5	-3	-3	Arbovirus inh repeat=2
Nc1c(Cl)c(Cl)nc(C(=O)N/N=C/c2ccco2)c1Cl	.	.	-1.5	.	-1
O=[N+]([O-])CC(=Nc1ccc(Cl)cc1)N/N=C\c1oc(O)c2ccccc12	.	-10	7.8	5	24
COc1ccc(C(=O)OC(C)C(=O)NC(C)CCc2ccccc2)cc1[N+](=O)[O-] (stereo not given)	.	.	-7.0	.	8
CCC1Oc2ccc(C)cc2N(CC(=O)N(Cc2ccc(C)o2)C2CC(C)(C)NC(C)(C)C2)C1=O (stereo not given)	-7%	2	2.6	-21	-1
COc1cc(SC)ccc1C(=O)Nc1ccc(C)cc1C	2%	-27	3.0	-11	.
O=C(COc1ccccc1F)Nc1ccc(S(=O)(=O)NCc2ccco2)cc1	-2%	-30	0.7	5	0
CC(C)c1nnc(NC(=O)c2ccc3ccccc3c2)s1	.	.	1.9	.	-9
CCOC(=O)C1=C(C)N=C2SCCC(=O)N2C1c1sccc1C (stereo not given)	-9%	-17	-4.2	3	-2
CCN(CC)S(=O)(=O)c1ccc(NC(=O)c2cc(C(=O)OC)cc([N+](=O)[O-])c2)cc1	6%	-27	1.6	-13	-3
COCOc1ccc(C=O)c(OCOC)c1	-1%	.	-1.6	.	3
O=[N+]([O-])c1ccc(N2CCOCC2)nc1	-8%	-16	0.2	2	0
CCCCn1nnnc1SCC(=O)NCc1ccco1	.	-15	0.2	7	-4
C=CCNC(=S)N/N=C/c1ccc(-c2ccc(Cl)cc2Cl)o1	.	.	-9.5	.	78
CCc1ccc(N2C(=O)NC(=O)/C(=C/c3cccn3CCOc3ccc(C)cc3)C2=O)cc1	8%	-21	-6.5	2	13
NC(=O)C1CCN(C(=O)COCc2cc(-c3ccc4c(c3)OCO4)on2)CC1	.	.	-7.8	.	?
CSc1nnc(COc2ccc(C)cc2)n1N	-4%	28	0.2	0	-9
Cn1c(-n2c(-c3ccco3)nc3ccccc3c2=O)nc2ccccc21	5%	-29	2.4	0	74
Cc1cc(C(=O)N(C)CC(=O)Nc2ccc(F)c(F)c2F)no1	.	.	-1.7	.	-3
Cc1ccc[n+](CC(=O)c2ccc(-c3ccccc3)cc2)c1	-1%	-8	-0.3	-4	2
CC(C)(C)Cc1cc(N)on1	-1%	-11	1.9	0	-1
O=C(CCc1ccccc1)NNC(=O)CCc1ccccc1	.	.	-0.5	.	-1
CSc1nc(-c2ccc(Cl)cc2Cl)[nH]c(=O)c1C#N	16%	-25	-2.3	42*	8

A portion from further up:
SMILES	Mtb H37Rv	YopH inh	RecA intein inh	Arbovirus inh	Mtb bLac sens	others
COCOc1ccc(C=O)c(OCOC)c1	-1%	.	-1.6	.	3
O=[N+]([O-])c1ccc(N2CCOCC2)nc1	-8%	-16	0.2	2	0
CCCCn1nnnc1SCC(=O)NCc1ccco1	.	-15	0.2	7	-4
C=CCNC(=S)N/N=C/c1ccc(-c2ccc(Cl)cc2Cl)o1	.	.	-9.5	.	78
CCc1ccc(N2C(=O)NC(=O)/C(=C/c3cccn3CCOc3ccc(C)cc3)C2=O)cc1	8%	-21	-6.5	2	13
NC(=O)C1CCN(C(=O)COCc2cc(-c3ccc4c(c3)OCO4)on2)CC1	.	.	-7.8	.	?
CSc1nnc(COc2ccc(C)cc2)n1N	-4%	28	0.2	0	-9
Cn1c(-n2c(-c3ccco3)nc3ccccc3c2=O)nc2ccccc21	5%	-29	2.4	0	74
Cc1cc(C(=O)N(C)CC(=O)Nc2ccc(F)c(F)c2F)no1	.	.	-1.7	.	-3
Cc1ccc[n+](CC(=O)c2ccc(-c3ccccc3)cc2)c1	-1%	-8	-0.3	-4	2
CC(C)(C)Cc1cc(N)on1	-1%	-11	1.9	0	-1
O=C(CCc1ccccc1)NNC(=O)CCc1ccccc1	.	.	-0.5	.	-1
CSc1nc(-c2ccc(Cl)cc2Cl)[nH]c(=O)c1C#N	16%	-25	-2.3	42*	8

The listing picks up, starting 2 compounds before the break.
SMILES	Mtb H37Rv	YopH inh	RecA intein inh	Arbovirus inh	Mtb bLac sens	others
O=C(CCc1ccccc1)NNC(=O)CCc1ccccc1	.	.	-0.5	.	-1
CSc1nc(-c2ccc(Cl)cc2Cl)[nH]c(=O)c1C#N	16%	-25	-2.3	42*	8
Cc1ccccc1C(=O)Nc1ccnc(-c2ccncc2)n1	-2%	.	-3.2	-7	-3
Cc1cc(NC(=O)CSc2nc3ccccc3n2CC(=O)N2CCC(C)CC2)no1	-4%	-1	2.4	1	15
CCCn1c(N)c(N(CCOC)C(=O)CSCC(=O)Nc2cccc(C)c2)c(=O)[nH]c1=O	.	.	-0.2	.	-3
COc1ccc(C(=O)N2CCOC2CNC(=O)C(=O)NCCc2ccccc2OC)cc1 (stereo not given)	.	.	2.9	.	-12
CCCCNc1nc2ccccc2n1CC(=O)Nc1c(C)cccc1CC	7%	-31	-2.1	-4	5
N#C/C(=C/c1ccc(Br)o1)C(N)=O	-3%	-27	1.4	-13	1
COc1ccc2c(CC(=O)N[C@@H](Cc3ccccc3)C(=O)O)cc(=O)oc2c1	.	.	-3.1	.	5
Cc1[nH]c2ccccc2c1C(=O)CSc1nc2ccccc2c(=O)n1-c1ccccc1F	3%	.	-0.1	-5	7
Cc1ccc(NCCC#N)cc1C	-1%	7	-3.9	-4	0
CN(c1ccccc1)S(=O)(=O)c1cccc(NC(=O)c2ccc3ncsc3c2)c1	-4%	.	2.7	.	-5
Cc1cc(NC(=O)CSc2nc(N)c(NC(=O)c3ccc(F)c(F)c3)c(=O)[nH]2)no1	.	.	1.2	.	-6
COc1cccc(N2CCN(S(=O)(=O)c3cc4c(cc3C)N(C)CCO4)CC2)c1	.	.	3.3	.	9
O=C(CSc1ccc(Br)cc1)N1CCN(S(=O)(=O)c2ccccc2)CC1	.	.	0.7	.	5
Cc1cc(C)cc(NC(=O)c2ccc(NC3=NC4CS(=O)(=O)CC4S3)cc2)c1 (stereo not given)	.	.	-1.0	.	4
O=C(c1cc2ccccc2oc1=O)N1CCN(S(=O)(=O)c2ccccc2)CC1	.	.	-3.1	.	1
CCN1CCN(CC(=O)Nc2ccc(Cl)c(Cl)c2)C(=O)C1=O	6%	-29	1.0	-1	-4	Arbovirus inh repeat=-1
CC(=O)c1cccc(NC(=O)CSC(=O)c2ccccc2)c1	-1%	-25	21	-2	5
Cc1nc(N2CCCCC2)c(C#N)c(C)c1[N+](=O)[O-]	5%	.	3.7	13	11
COc1cccc(CNC(=O)CCC(=O)n2ncc3cc(C)ccc32)c1OC	.	.	0.9	.	-10
CCCCN(C)C/C(O)=C(\C#N)c1nc(-c2ccccc2)cs1	-9%	-9	0.3	2	-18
Cc1ccc(-c2nnc(CSc3nnc(COc4ccccc4)n3-c3ccc(C)cc3)o2)cc1	3%	-32	17	-26	1
Cc1cccn2c(CN3CCNC(=O)CC3)c(C(=O)N(C)CCc3ccccc3)nc12	6%	.	-1.9	5	-1
Cc1cccc(-c2cc3nc4c(c(NCc5ccco5)n3n2)CCCC4)c1	43%	4	0.9	11	81
Cc1ccc(NC(=O)C(C)SCC(=O)Nc2ccc(F)cc2)cc1S(=O)(=O)N1CCOCC1 (stereo not given)	.	.	-1.6	.	-11
O=C(C[n+]1ccc(C(=O)NCc2ccccc2)cc1)c1ccc2c(c1)OCCO2	1%	.	3.8	1	-10
OCC(CO)(CO)n1cnnn1	-4%	-15	-5.4	2	-2
CCOC(=O)C1(Cc2cccc(OC)c2)CCCN(C(=O)c2cc(C)on2)C1 (stereo not given)	.	.	-0.4	.	1
NC(=O)NC1CCCc2c1[nH]c1ccc(Cl)cc21 (stereo not given)	0%	-20	0.1	7	-2	Arbovirus inh repeat=0
COc1ccc(-n2c(=O)c3c(C)c(C)sc3n(Cc3cccc(F)c3)c2=O)c(OC)c1	4%	.	0.2	-5	7
CC1(C)Cc2c(sc(/N=C/N3CCOCC3)c2C#N)C(C)(C)N1	.	-29	-1.7	0	-1
CCC(Cc1ccccc1)NC(=O)Cn1ncc2ccsc2c1=O (stereo not given)	-6%	.	0.9	0	6
Cc1ccc(-n2nc3ccc(NC(=O)c4ccco4)cc3n2)cc1	10%	-1	5.6	-10	56
O=C(CN1CCN(S(=O)(=O)c2ccc(Br)cc2)CC1)Nc1ccc2c(c1)OCCO2	1%	-34	3.7	-13	79
COc1ccccc1CN(C)C(=O)c1cc(-c2cccs2)nc2ccccc12	.	.	12	.	0
Cc1c(NC(=O)Nc2ccccc2Cl)sc(=S)n1C	-10%	0	0.8	-11	-2
COc1cccc2c1-c1c(C(=O)O)cccc1C2=O	.	.	-1.6	.	0
COc1ccccc1NS(=O)(=O)c1ccc(C)c(NC(=O)NCCCl)c1	5%	.	2.6	.	-10
Cc1ccc(C)c(NC(=O)CSc2nc3c(oc4ccccc43)c(=O)n2-c2ccccc2)c1	9%	-6	-3.5	18	1
CCOC(=O)Cc1csc(NC(=O)CSc2nnc3ccccn23)n1	2%	.	-0.5	7	-2
Cc1cccc(C)c1NC(=O)COC(=O)c1c2c(nc3ccccc13)/C(=C\c1ccc3c(c1)OCO3)CCC2	6%	-15	.	-22	-2
O=C(Nc1ccc(F)c(Cl)c1)Nc1cnccn1	-2%	.	-7.2	0	-2
COc1ccccc1CC(=O)NCC(c1ccco1)N1CCCCC1 (stereo not given)	3%	.	5.6	4	9
CCCCCCCNC(=O)COc1ccc2c(c1)C(=O)CC(C)(C)O2	7%	-17	-6.7	-3	-3
Cc1onc(-c2ccccc2Cl)c1C(=O)NC(=S)NCC(=O)c1ccccc1	-11%	.	.	-7	3
CCc1ccc(-c2cc3c(=O)n(CC(=O)N4CCCC4)nc(C)n3n2)cc1	.	.	-2.3	.	3
COc1cccc(CNC(=O)C2CCC(=O)N(CCc3cccc(F)c3)C2)c1 (stereo not given)	.	.	-2.3	.	-7
COc1cc(C(=O)OC2CCOC2=O)c([N+](=O)[O-])cc1OC (stereo not given)	.	.	-0.2	.	3
CC(=O)Nc1ccc(C(=O)OCC(=O)/C(C#N)=C(\C)N)cc1	2%	.	-2.5	3	4
COc1ccc2c(c1)C(=O)N(Cc1ccccc1)C(=O)C2(C)C	.	.	6.5	.	2
O=C(NNC(=O)c1ccc(S(=O)(=O)N2CCOCC2)cc1)c1ccccc1	.	.	2.9	.	-2
CC(C)c1ccc(NC2CCCN(C(=O)c3ccc(N4CCOCC4)cc3)C2)cc1 (stereo not given)	.	.	2.6	.	8
CCCCCN1CC(O)=C(c2nc3ccccc3[nH]2)C1=N	7%	.	-1.3	-2	38
CC(Sc1nnnn1C1CCCCC1)C(=O)O (stereo not given)	-3%	.	1.0	8	-2
CC(C)CCNC(=O)C(=O)Nc1ccc2c(c1)N(S(=O)(=O)c1cccs1)CCC2	.	.	-1.5	.	-9
CCN1C(=O)c2cccc3c(S(=O)(=O)NCc4cccnc4)ccc1c23	-1%	-11	-292	-3	-6
O=C1c2ccccc2C(=O)N1CCc1nc2ccccc2c(=O)n1-c1ccccn1	-5%	-18	1.8	0	-2
O=C(O)c1ccc(CS(=O)(=O)c2cccc(C(F)(F)F)c2)o1	-7%	8	1.6	1	-1
O=C(CN(Cc1ccc(F)cc1)C(=O)CNS(=O)(=O)c1ccccc1)NCc1ccco1	.	.	3.8	.	0
CCCn1ncc([C@@H]2C[C@H]3CN(Cc4cccc(Cl)c4)C(=O)[C@]34CCCN24)c1C	-1%	.	-2.4	-1	-5
O=C(CSc1n[nH]c(-c2ccccc2F)n1)NCC(=O)Nc1ccc(F)c(F)c1F	2%	.	-0.4	7	2

Other results.
SMILES	Mtb H37Rv	YopH inh	RecA intein inh	Arbovirus inh	Mtb bLac sens	others
COc1ccccc1CNC(=S)NC1CCCC1	.	-24	-2.1	-4	6
Cc1ccc(-n2c(SCC(=O)N/N=C/c3c(C)nn(-c4ccccc4)c3C)nc3ccccc3c2=O)cc1	.	-20	2.1	-6	4
COc1ccccc1NC(=O)Nc1cccc(C(=O)O)c1	-10%	.	-0.5	5	3
Cn1nc(-c2ccccc2)c2cc(C(=O)O)sc21	-11%	.	-2.8	11	-3
O=C(c1ccco1)N1CCN(C(c2ccccc2Cl)c2nnnn2CC2CCCO2)CC1 (stereo not given)	12%	-36	.	2	-2
